Assay outcomes (PubChem)
Sa helicase inh = inhibitors of S. aureus replicative helicase, primary screen, biochemical, fluorescence unwinding readout | purified S. aureus helicase, fluorescence unwinding assay; about half of the hits fall short of the stated cut | 0.05% of 120,000 active | replicative DNA helicase (DnaC/DnaB), Staphylococcus aureus | inhibition, %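 (tested at about 80 µM)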;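 active means both duplicates at 50% or more, or one of them with a favoured structure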;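 further: 0% = mean of negative control wells and 100% = mean of positive control wells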
MgrA-DNA mod = S. aureus MgrA activity modulators, primary screen, biochemical, S. aureus Newman, fluorescence polarization. MgrA-DNA binding. inhibition, %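 (about 10 µg/mL by stock and volumes)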. 0.13% of 84,000 active;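 active means above 50% in either of two replicates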;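 further: 0% = protein plus DNA without compound and 100% = DNA alone without protein; higher means less MgrA bound to DNA so lower polarization; one replicate is shown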
The depositor's hits bear a star; / = not tested or not shown; & = joins results of further samples. An excerpt; count on the stated rates, not on these rows.

structure | Sa helicase inh | MgrA-DNA mod
CSc1nnc(C)c(=O)[nH]1 | -2.0 | 2.1&-0.8
COc1ccc(CC(=O)NCc2n[nH]c(=S)n2-c2cccc(C)c2)cc1 | 9.0 | /
Cc1ccc(NC(=O)COC(=O)CC2SC(N3CCCC3)=NC2=O)cc1 (stereo not drawn) | -3.0 | /
COc1ccc(/C(C)=N/N2C(=O)c3ccccc3NC2c2ccccc2O)cc1 (stereo not drawn) | 15.0 | 0.8
O=C(NC1CCCC1)C(Sc1ccccc1)c1ccccc1 (stereo not drawn) | -2.0 | -0.9
O=C(Cn1c(=O)n(CCCC(=O)NC2CCCC2)c(=O)c2ccccc21)NCCC1=CCCCC1 | -5.0 | /
CCc1ccc(NS(=O)(=O)c2c(C)[nH]c(=O)[nH]c2=O)cc1 | -9.0 | -1.8
CCCCC(C(=O)Nc1ccc(F)cc1)N1C(=O)c2ccccc2C1=O (stereo not drawn) | -11.0 | /
Cc1nc2ccccc2c2c1C(=O)CC(c1ccc(F)cc1)=N2 | 10.0 | 0.7
COCCOC(=O)C1=C(C)NC(C)=C(C(=O)OC(C)C)C1c1cccc([N+](=O)[O-])c1 (stereo not drawn) | / | 1.0&0.3&0.1
CCOC(=O)Nc1ccc(NC(=O)OCC)cc1 | 19.0 | /
Oc1ccccc1-c1nc(-c2ccccc2)no1 | 0.0 | 2.2
O=S(=O)(c1ccccc1)N1CCC(O)C2CCCCC21 (stereo not drawn) | 15.0 | -1.1
CC(=O)O[C@@H]1[C@@H](OC(C)=O)[C@@H]2OC[C@@H](O2)[C@H]1OC(C)=O | / | -1.6
CCC(C)[C@@H](C(=O)NCc1ccc(F)cc1)N1Cc2ccccc2C1=O (stereo partly drawn) | 13.0 | -1.6
COc1ccc(-c2csc(S(C)=O)c2C#N)cc1 (stereo not drawn) | 14.0 | /

Looked up by compound from the list above (two):
structure | Sa helicase inh | MgrA-DNA mod
CCc1ccc(NS(=O)(=O)c2c(C)[nH]c(=O)[nH]c2=O)cc1 | -9.0 | -1.8
O=C(NC1CCCC1)C(Sc1ccccc1)c1ccccc1 (stereo not drawn) | -2.0 | -0.9

Continued.
structure | Sa helicase inh | MgrA-DNA mod
OC1COCc2nc3ccccc3n2C1 (stereo not drawn) | 17.0 | -2.4
Cc1sc2ncn(CC(=O)NC3CCCC(C)C3C)c(=O)c2c1S(=O)(=O)N1CCC(C)CC1 (stereo not drawn) | 10.0 | 4.0
C=CCn1c(-c2c(C)oc3ccccc23)cs/c1=N\S(=O)(=O)c1cccs1 | 19.0 | /
CC1CCCCN1C(=S)NCc1ccccc1 (stereo not drawn) | 5.0 | -1.7
CC(C)CCNC(=O)Cn1c(SCc2c(F)cccc2Cl)nc2ccncc21 | 3.0 | -2.6
Clc1ccc(OCCn2cnc3ccccc32)cc1 | 10.0 | 0.5
Cc1cccc(OCCn2cnc3ccccc32)c1 | -9.0 | /
COC(=O)c1c(C)nn(C)c1-c1ccno1 | / | -2.2

Of the compounds above, these contain a thiophene ring, fused or not:
structure | Sa helicase inh | MgrA-DNA mod
COc1ccc(-c2csc(S(C)=O)c2C#N)cc1 (stereo not drawn) | 14.0 | /
Cc1sc2ncn(CC(=O)NC3CCCC(C)C3C)c(=O)c2c1S(=O)(=O)N1CCC(C)CC1 (stereo not drawn) | 10.0 | 4.0
C=CCn1c(-c2c(C)oc3ccccc23)cs/c1=N\S(=O)(=O)c1cccs1 | 19.0 | /

The results go on.
structure | Sa helicase inh | MgrA-DNA mod
CC1(C)CC(=O)C(N=Nc2ccc3c(c2)OCO3)=C(O)C1 | 2.0 | 1.9
O=C(Nc1ccc2oc(-c3cccc(F)c3)nc2c1)c1ccc2c(c1)OCCO2 | / | 1.4
N/C(=N\c1nc(-c2cccs2)cc(C(F)(F)F)n1)Nc1cccc(Cl)c1 | 7.0 | 1.6
Cn1nccc1-c1cc(F)cc(F)c1O | / | 2.0
Cc1ccc(NC(=O)c2ccccc2N=Cc2cc(Cl)cc(Cl)c2O)c(N=Cc2cc(Cl)cc(Cl)c2O)c1 | / | -1.6
CCCOc1ccc(NC(=O)c2ccccc2C(=O)O)cc1 | / | 1.0
CCCNC(=O)c1cc(N(C)S(=O)(=O)c2ccccc2)ccn1 | -17.0 | /
COC(=O)Cn1c(=O)c(=O)n(CC(=O)OC)c2ccccc21 | 2.0 | 1.8
CCc1ccc(CNC(=O)CCc2cn(Cc3ccccc3)c3ccccc23)cc1 | 14.0 | -1.1
Clc1ccccc1-c1nnc(SCCC2OCCCO2)o1 | / | -0.1
CC1(C)C2CC=C(CNc3ccc4c(c3)OCO4)C1C2 (stereo not drawn) | -10.0 | 5.3
Cc1cc(-n2c(C)cc(/C=C3\SC(=NC4CCCC4)NC3=O)c2C)no1 | -1.0 | /
COc1cc(C(=O)OCn2c(=O)oc3ccccc32)cc(OC)c1OC | -2.0 | 1.3
O=C1C=C(Cc2ccc(F)cc2)C(=O)c2ccccc21 | 5.0 | 10.0
Cc1ccccc1NC(=O)Cn1ncc2ccccc21 | -14.0 | 0.1
COC(=O)C1=CN(C(CC(C)C)C(=O)OC)C=C(C(=O)OC)C1c1ccc(Br)cc1 (stereo not drawn) | -16.0 | -0.3
CCN(CC)S(=O)(=O)c1ccc(NC(=O)Cn2c(=O)cnc3ccccc32)cc1 | 10.0 | /
C[C@H]1O[C@@H](n2cnc3c(N)ncnc32)[C@H](O)[C@@H]1O | -12.0 | /
Cc1ccc(-n2cnc3cc(NCc4ccco4)ccc32)cc1 | 8.0 | /
CCOC(=O)C1CCC(CNCc2ccccc2)CC1 (stereo not drawn) | 13.0 | /
CN1CC=C(/C=C/c2ccc(-c3nc4ccccc4s3)o2)CC1 | -10.0 | 17.6
O=C(CN1C(=O)NC2(CCCC2)C1=O)c1ccccc1 | -5.0 | /
O=c1cc[nH]c(=S)[nH]1 | / | 2.8
O=C(NC(=O)c1ccccc1F)OCc1ccc(Cl)cc1Cl | / | 4.4
CC(c1ccccc1)n1c(CCc2ccc(O)cc2)n[nH]c1=S (stereo not drawn) | / | 0.7
CCOC(=O)c1oc2ccccc2c1NC(C)=O | 4.0 | -0.8
Cc1ccccc1/C=C1\Sc2ccccc2N(CC(=O)NC(C)c2ccccc2)C1=O (stereo not drawn) | 4.0 | -0.4
CCC(C)NC(=O)CSc1nc2n[nH]c(C)c2c(=N)n1-c1ccc(Br)cc1 (stereo not drawn) | -2.0 | -0.2
COc1ccc(CCNC(=O)CSc2nc(N3CCOCC3)nc(N3CCOCC3)n2)cc1OC | -12.0 | -0.3
c1ccc(-c2nnc(SCc3cccnc3)o2)cc1 | 1.0 | -0.7
Cc1nc2ccccc2cc1C(=O)NCc1ccccn1 | 24.0 | /
CC(C)(C)c1cc(C(=O)NN)n(Cc2ccccc2)n1 | 27.0 | /
CN(Cc1cccnc1)C(=O)CNS(=O)(=O)c1ccccc1C#N | -8.0 | /
O=C(O)C1CCN(c2ncccn2)CC1 | 11.0 | /
COc1ccc(C(=O)CCN2CCOCC2)cc1 | -1.0 | -2.9
Cc1cc(NCc2cccnc2)n2ncnc2n1 | -6.0 | 2.4
O=C(CSc1ncccn1)n1c2c(c3ccccc31)CCCC2 | -3.0 | -1.1
CCNC(=O)C1CC(=O)N(c2ccc(C)cc2)C1 (stereo not drawn) | 17.0 | -1.2
CCC(=O)NCc1ccc2[nH]c(C)cc2c1 | 7.0 | /
COC(=O)c1ccccc1NC(=O)COc1nc2ccccc2nc1N1CCOCC1 | -6.0 | /
c1ccc(CSC2=NCN(Cc3ccccc3)CN2)cc1 | / | 4.7
O=C1Nc2ccccc2-c2ccccc2N1 | 13.0 | /
CCOC(=O)c1csc(NC(=O)COc2ccc(Cl)cc2Cl)n1 | -6.0 | /
CCN1C(=O)c2cccc3c(S(=O)(=O)Nc4ccc(C)cn4)ccc1c23 | 16.0 | /
N#Cc1c(NC(=S)NC(=O)c2ccco2)sc2c1CCCC2 | 0.0 | 1.5
COC(=O)C1CCN(C(=O)Cn2c(=O)cnc3ccccc32)CC1 | -11.0 | /
Cc1onc(-c2c(F)cccc2Cl)c1C(N)=S | / | 0.2
COc1ccc(COC(=O)C2=C(C)NC(=O)NC2c2cccc(Br)c2)cc1 (stereo not drawn) | / | -0.5
CN1/C(=C\C(=O)CN2CCOCC2)C(C)(C)c2ccccc21 | -2.0 | /
Cc1cccc(OCC(=O)Nc2ccc(NC(=O)c3ccco3)cc2)c1 | 5.0 | 0.5
COC(CNC(=O)Cn1nc(-c2ccccc2)c2cc(Cl)ccc21)OC | 2.0 | 0.2
COCCN1Cc2cccc(C(=O)Nc3ccc4c(C)cc(=O)oc4c3)c2C1=O | 11.0 | 0.9
Cc1ccc(S(=O)(=O)c2ccc(-n3ncc(C#N)c3N)cc2)cc1 | -12.0 | /
CN(C)/C=N/C(=S)Nc1cccc(C(F)(F)F)c1 | / | 0.5
COc1ccc(-c2nc3c(cc2C#N)c(=O)n(C)c(=O)n3CC(C)C)cc1 | 8.0 | /
CCC(C)NC(=O)Cn1ncn2c(cc3sc(C)cc32)c1=O (stereo not drawn) | 7.0 | -0.6

The results go on:
structure | Sa helicase inh | MgrA-DNA mod
Cc1c(N=Cc2cccnc2)c(=O)n(-c2ccccc2)n1C | 3.0 | 0.2
CCc1nc(NN)c2c(n1)-c1ccccc1CC21CCCCC1 | / | -1.2
CC(=O)N1CCC(C(=O)c2c(C)c(C)c(C)c(C)c2C)CC1 | / | -1.4
O=C(NCCc1ccccc1)c1cc(-c2ccccc2)on1 | 19.0 | 1.5
C=CCNC(=O)C1CCN(S(=O)(=O)CC)CC1 | 9.0 | 1.9
N/C(=N\OC(=O)c1sc2ccccc2c1Cl)c1cccc([N+](=O)[O-])c1 | / | 1.8
CN(C)C=Nc1ccc(Oc2cncc(Cl)c2)nc1 | / | 0.9
Cc1ccc(C(=O)N2C3=C(CCCC3)C(=O)NC23CCCCC3)cc1 | 11.0 | /
CC1CC(NC2=NCCS2)CC(C)(C)C1 (stereo not drawn) | / | 0.8
O=C(Oc1ccc2ccc(=O)oc2c1)c1ccccc1 | 9.0 | -0.1
Clc1ccccc1CN1CCN(Cc2ccco2)CC1 | -1.0 | -2.1
C#CCN1C(=O)S/C(=C/c2cc(C)n(-c3cccc(I)c3)c2C)C1=O | 6.0 | 1.0
Cc1ccc(S(=O)(=O)N2C(=O)CCC2C(=O)O/N=C(\N)c2ccccn2)cc1 (stereo not drawn) | 8.0 | 5.3
COc1ccc(CCn2c(N)c(Br)c(=O)[nH]c2=O)cc1OC | 1.0 | -0.2
CCOC(=O)N1CCC(NC(=O)c2cc(C)on2)CC1 | / | 1.5
CC(=O)N(CC(=O)O)c1ccccc1C(=O)O | / | 2.2
C=CCN1CC(c2nc3ccccc3n2CC(C)C)CC1=O (stereo not drawn) | 0.0 | 1.0
CCc1cc2c(=O)c(-c3nc4ccccc4s3)coc2cc1O | -19.0 | /
COc1ccc(-c2nc3ncccn3c2Nc2ccccc2)cc1 | 11.0 | 4.7
CSc1nnc(Nc2ccc(Cl)cc2Cl)s1 | / | -0.9
O=C1NC(=Nc2ccccc2)S/C1=C/c1ccc(Cl)cc1 | -14.0 | 0.5
CN1CCN(c2nc3c(c(=O)n(C)c(=O)n3C)n2Cc2c(Cl)cccc2Cl)CC1 | / | -0.9
CC1=C(C(=O)N2CCCC2)C2(CCN(S(=O)(=O)c3cccs3)CC2)OC1=O | 2.0 | /
CC1CCCCN1C(=O)COc1ncnc2ccc(Br)cc12 (stereo not drawn) | -5.0 | /
O=C(NC(Cc1nc2ccccc2n1CCO)c1ccccc1)c1ccccc1 (stereo not drawn) | -13.0 | -1.1
O=C(c1cccc(S(=O)(=O)NC2CCCC2)c1)N1CCCc2ccccc21 | 5.0 | /
COC(=O)c1ccc(Nc2nc3ccc(Cl)cc3n3cnnc23)cc1 | 8.0 | /
O=C(CC1NCCNC1=O)Nc1ccccc1 (stereo not drawn) | 35.0 | /
CC(C)C(=O)Nc1nc(-c2ccccc2)c(C(=O)c2ccccc2)s1 | 19.0 | /
CN(C)CC#Cc1cncc(C#N)c1 | / | -1.4
C=CCn1c(=N)n(CC(=O)c2ccc(-c3ccccc3)cc2)c2ccccc21 | 13.0 | -0.7
O=C(NCC1CCCO1)c1ccc(NS(=O)(=O)c2ccccc2)cc1 (stereo not drawn) | 6.0 | 3.3
Cc1cc(C(=O)C(F)(F)F)c(C)n1-c1ccccc1 | / | -1.6
CC(C)Cc1ccc(C(C)C(=O)Nc2cccc(-c3cnco3)c2)cc1 (stereo not drawn) | / | -0.6
COC(=O)c1c(C)oc2ccc(OCc3ccc(Br)cc3)cc12 | 14.0 | 1.5
CCN(CC)c1nc2cc(OC)ccc2cc1C#N | -3.0 | /
Cn1nnc2c(NC3CC3)nc(Cc3ccc(Cl)cc3Cl)nc21 | -12.0 | /
CC(CC#N)C(=O)c1ccccc1 (stereo not drawn) | / | 0.3
N#CC(C(=O)C1CC1)=C1SCCCS1 | / | 0.1
O=c1c2cc(Cl)ccc2nc2n1CCC2 | -13.0 | /
CC(=O)N1CCC(N)=N1 | 7.0 | /
O=C(O)c1nccnc1C(=O)N1CCN(c2nc3ccc(Cl)cc3s2)CC1 | -15.0 | /
Nc1nc(-c2cccs2)c(C(=O)C(F)(F)F)s1 | 1.0 | /
COC(=O)c1cnc(NN2C(=O)C=C(C)C2=O)nc1C(F)(F)F | / | 1.2
COc1ccccc1C(=O)NCC(c1cccnc1)N(C)C (stereo not drawn) | -11.0 | /
O=C(CCNc1n[nH]c(=O)[nH]c1=O)N1CCOCC1 | 13.0 | -0.6
